Source: PubChem BioAssay (several laboratories)
BJeLR viability: BJeLR cell viability loss | BJeLR (HRASV12) viability, CellTiter-Glo ATP luminescence, 48 h; reference of the scale not given here | inhibition, % (no concentration beside the values) | 0.17% of 300,000 active | AID 1554;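 active = replicate mean above 50%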;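 note: 50 nL library stock added to about 25 µL; numbers are from one replicate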
PrP 5UTR inh: suppresses PrP 5' UTR mRNA reporter expression | cell-based PrP 5' UTR mRNA reporter, plate reader | inhibition, % (test concentration not listed) | 0.35% of 340,000 active | AID 488862;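 active = every replicate at 50% or more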;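 note: 0 = median of the neutral control wells; tested in H4 reporter cells; numbers are from one replicate; inactives centre near -14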
Sa ugtP lethal: growth inhibition of S. aureus ugtP deletion strain. S. aureus RN4220 ugtP deletion, OD600 growth, 16 h; some inactives read as strong as hits. growth inhibition, % (no concentration beside the values). 0.54% of 330,000 active. AID 1259309;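 active = z-score under -3 and OD600 up to 0.15 on both plates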;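 note: plate controls were untreated wells for no effect and antibiotic for full effect; wells of about 80 µL received 100 nL stock; the first replicate is given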
Autofluor counter: flagged as autofluorescent in microsphere protease counterscreen; compound autofluorescence counterscreen, microsphere flow cytometry; active compounds read high; fluorescence intensity (concentration not given with the values); 3.1% of 360,000 active;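 active = at least 3 SD above the mean of all compounds, about 16000 in these data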;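 note: 100 nL of 1 mM stock went into each well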
Sa RN4220 lethal: kills Staphylococcus aureus RN4220. S. aureus RN4220 growth, OD600, 16 h. inhibition, % (test concentration not listed). 0.33% of 330,000 active. AID 1259311;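 active = z-score of -3 or lower and OD600 up to 0.18 on both plates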;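 note: plate controls were untreated cells for no effect and reference antibiotic for full effect; stock transfer was 100 nL into about 80 µL; one replicate is shown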
Mtb hypoxia rep: Mtb hypoxia fluorescent reporter inhibition; M. tuberculosis hypoxia-regulated fluorescent reporter, fluorescence; fluorescence inhibition, % (concentration not given with the values); 0.1% of 300,000 active; AID 1159583;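 active = 35 to 45% if threefold the growth effect, above 45% if 1.5-fold the growth effect; inactive = the rest, general growth blockers included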;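 note: wells of about 50 µL received 100 nL stock; 0% = vehicle wells and 100% = reference inhibitor wells; whole bacteria with a GFP reporter of the hypoxia response; strong numbers were not always called active; many hits fall short of the cut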
Mtb hypoxia rep growth: also measured in Mtb hypoxia rep; calls as there; growth inhibition, %; measured here: M. tuberculosis growth (absorbance);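 0% = vehicle and 100% = reference antibiotic; read after six days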
An asterisk follows results filed as active; . = not tested or not shown.

Preview (5 entries):
SMILES	BJeLR viability	PrP 5UTR inh	Sa ugtP lethal	Autofluor counter	Sa RN4220 lethal	Mtb hypoxia rep	Mtb hypoxia rep growth
COc1ccc(OCC(=O)NN=C(CCC(=O)O)c2cccs2)cc1	.	.	2	.	8.8	-2	-1
ON=Cc1cn(-c2ccc(Cl)cc2)nn1	.	.	-1	.	4.0	-2	0
CCCc1[nH]n(-c2ccc(F)cc2)c(=O)c1C=NCC1CCCO1 (configuration not stated)	6	3	11	5474	-1.9	2	7
COC(=O)c1ccccc1NC(=O)CSc1ccc(C)cc1	-6	-10	18	8323	6.6	6	1
O=C(O)c1cnn(-c2nc(-c3cccc([N+](=O)[O-])c3)cs2)c1C(F)(F)F	-6	7	16	4007	-0.4	-8	8

The listing, repeating the preview:
SMILES	BJeLR viability	PrP 5UTR inh	Sa ugtP lethal	Autofluor counter	Sa RN4220 lethal	Mtb hypoxia rep	Mtb hypoxia rep growth
COc1ccc(OCC(=O)NN=C(CCC(=O)O)c2cccs2)cc1	.	.	2	.	8.8	-2	-1
ON=Cc1cn(-c2ccc(Cl)cc2)nn1	.	.	-1	.	4.0	-2	0
CCCc1[nH]n(-c2ccc(F)cc2)c(=O)c1C=NCC1CCCO1 (configuration not stated)	6	3	11	5474	-1.9	2	7
COC(=O)c1ccccc1NC(=O)CSc1ccc(C)cc1	-6	-10	18	8323	6.6	6	1
O=C(O)c1cnn(-c2nc(-c3cccc([N+](=O)[O-])c3)cs2)c1C(F)(F)F	-6	7	16	4007	-0.4	-8	8
O=S(=O)(Cc1ccccc1)NC1c2ccccc2Oc2ccccc21	.	-16	-9	3334	0.9	3	2
CCOc1ccc(/C=N/NC(=O)c2cc3c(OC)cc(OC)c(OC)c3[nH]2)cc1	6	2	.	3399	.	.	.
COc1ccc(OC)c(NC(=O)NC2CCCc3ccccc32)c1 (configuration not stated)	2	5	-12	.	-2.8	0	-10
COc1ccc(-c2csc(Nc3ncccc3C)n2)cc1OC	8	-71	5	3473	34	-6	-1
CCOC(=O)c1ccc(N2C(=O)CC(N3CCOCC3)C2=O)cc1 (configuration not stated)	-6	-9	4	4511	2.5	.	.
O=C(CSc1nnc(COc2ccccc2Cl)o1)NC(=O)NCc1ccco1	14	-8	-3	4672	5.2	15	2
CCOC(=O)N1CCN(C(=O)CCCCCn2c(=S)[nH]c3ccsc3c2=O)CC1	2	-32	4	4166	2.9	-1	20
C=CCc1c(C)nc(C)nc1N/N=C/c1ccccc1	5	-30	.	2331	.	.	.
Cc1ccccc1Cn1ccc(NC(=O)c2cnn3c2NC(c2ccccc2)CC3C(F)(F)F)n1 (configuration not stated)	0	-14	18	11106	-2.4	-12	4
O=C1c2ccccc2NC2(CCCC2)N1NS(=O)(=O)c1ccccc1	6	-6	11	3508	6.0	13	-2
COc1ccc(-c2nc3n(n2)C(c2ccncc2)C(C(N)=O)=C(C)N3)cc1 (configuration not stated)	-14	-11	2	4086	0.2	-1	-2
O=C(CNC(c1ccccc1)c1ccccc1)Nc1ccccc1-c1ccccc1	-11	-14	-14	2134	-0.6	0	4
CCOC(=O)CC1C(=O)NCCN1C(=S)Nc1ccccc1 (configuration not stated)	-1	3	2	2430	2.1	-3	8
Cc1ccc(C2NCCS2)cc1 (configuration not stated)	.	-6	2	4359	5.6	-2	8
O=C(CCc1cccc(Cl)c1)NC1CCCN(Cc2ccccc2F)C1 (configuration not stated)	-4	-21	-7	4466	-0.6	-11	8

Reprinted at random: five records from the list
SMILES	BJeLR viability	PrP 5UTR inh	Sa ugtP lethal	Autofluor counter	Sa RN4220 lethal	Mtb hypoxia rep	Mtb hypoxia rep growth
CCOC(=O)CC1C(=O)NCCN1C(=S)Nc1ccccc1 (configuration not stated)	-1	3	2	2430	2.1	-3	8
CCOc1ccc(/C=N/NC(=O)c2cc3c(OC)cc(OC)c(OC)c3[nH]2)cc1	6	2	.	3399	.	.	.
O=C1c2ccccc2NC2(CCCC2)N1NS(=O)(=O)c1ccccc1	6	-6	11	3508	6.0	13	-2
C=CCc1c(C)nc(C)nc1N/N=C/c1ccccc1	5	-30	.	2331	.	.	.
ON=Cc1cn(-c2ccc(Cl)cc2)nn1	.	.	-1	.	4.0	-2	0

Later entries.
SMILES	BJeLR viability	PrP 5UTR inh	Sa ugtP lethal	Autofluor counter	Sa RN4220 lethal	Mtb hypoxia rep	Mtb hypoxia rep growth
c1ccc2c3c(cc(N4CCOCC4)c2c1)OC1(N2CCOCC2)CCCCC1O3 (configuration not stated)	1	1	2	4432	9.7	8	6
O=C(CN1C(=O)CCC1=O)Nc1nc2c(F)cc(F)cc2s1	-3	-6	-4	6027	-7.3	9	10
COc1cccc(C(=O)Nc2cccc3c2ccc2cccn23)c1	-5	-10	7	4144	11	-1	-1
O=C(NN=Cc1ccccc1OCc1ccccc1)c1cccnc1	.	.	9	.	12	-6	7
CCOC(=O)C1C2COc3ccccc3C2N2C(=O)c3cc(OC)c(OC)cc3NC(=O)[C@@]12C (some centres not stated)	.	.	0	.	6.2	-2	9
O=C(NN=C1C2CC3CC(C2)CC1C3)c1ccncc1	20	-32	3	2619	7.0	.	.
CC(C)Oc1ccc(C(=O)OCC(=O)c2ccc[nH]2)cc1	.	-88	3	4018	7.1	10	-4
Cc1[nH]c2c(C)cccc2c(=O)c1CN1CCCCCC1	10	-9	4	3553	6.2	11	5
CCn1nnc(NC(=O)c2cc(Cl)c(OC)c(Cl)c2)n1	8	-9	2	9760	0.8	4	8
Cc1sc2ncnc(Sc3nnnn3-c3ccccc3)c2c1C	0	-19	11	5280	8.0	1	2
O=C(CN1CCN(S(=O)(=O)N2CCCCCC2)CC1)Nc1ccc(F)cc1	-9	-1	11	3794	-0.7	-2	-2
CCCCOC(=O)c1c(C)oc2ccc(NS(=O)(=O)c3ccc4c5c(cccc35)C(=O)N4)cc12	5	-20	25	7930	1.4	3	9
C=CCn1sc(=N)c(C#N)c1N	-6	0	3	7399	3.5	16	4
CC(C)(C)c1ccc(C(=O)N2CCC(NC(=O)c3ccccc3)CC2)cc1	5	-1	8	3808	1.0	1	9
C=CCn1c(SCC(=O)Nc2ccc(N3CCOCC3)cc2)nnc1-c1ccco1	4	-2	11	5130	1.5	5	7
Cc1ccc(NC(=O)COC(=O)c2ccc3c(=O)n4c(nc3c2)CCC4)c(Br)c1	.	7	0	8141	2.0	6	8
O=C(O)c1cc(-c2ccncc2)nc2ccc(S(=O)(=O)N3CCOCC3)cc12	1	.	3	7432	3.2	1	3
Cc1ccc(NC(=O)c2sccc2-n2cccc2)c(C)c1	-3	-9	10	3683	9.3	15	8
Cn1c(SCc2cccc(F)c2)nnc1-c1ccccn1	-5	-30	12	16789*	7.7	12	8
Brc1ccc(-c2nnc(Cc3ccccc3)o2)cc1	2	.	-12	5110	3.5	.	.
COc1ccc(OC)c(CN2CCN(CC(=O)Nc3ccccc3C(=O)NC3CC3)CC2)c1	.	1	2	4174	1.9	13	1
CCC(=O)N1N=C(c2cccc(NS(C)(=O)=O)c2)CC1c1cccs1 (configuration not stated)	13	7	10	2559	17	-3	-3
N#CC(C#N)=CNc1cccnc1	0	-18	3	3540	2.6	8	2
Cc1c(C(=O)N2CCCC2)sc(NC(=O)c2ccccc2)c1C#N	-6	-8	-13	9518	5.2	2	7
Cc1ccc([N+](=O)[O-])cc1N/C=C1\CCc2ccccc2C1=O	-3	-131	-4	4468	-1.5	-3	-1
C=CCSc1nnc(NC(=O)C2CC(=O)N(c3ccc4c(c3)OCCO4)C2)s1 (configuration not stated)	.	-22	8	4103	4.6	4	4
C=CCc1cccc(CNc2nc3ccccc3n2CCN2CCOCC2)c1O	-2	-22	-2	11679	0.7	6	5
COc1cccc(Cn2nc(C(=O)O)c3ccccc3c2=O)c1	1	-1	7	3536	4.0	9	8
COc1ccc2c(CC(=O)N(C)CC3COc4ccccc4O3)coc2c1 (configuration not stated)	8	-23	1	5574	-1.4	5	-4
O=C(Cn1cc(C(=O)c2ccco2)c2ccccc21)NC1CC1	-1	-19	6	4294	3.6	14	5
CCN(CC(=O)Nc1c(F)cccc1F)C(=O)CNC(=O)c1cccs1	7	-35	12	5777	7.2	3	4
COc1ccc2oc(=O)c(N3C(=O)c4ccccc4C3=O)cc2c1	12	-4	9	5987	1.2	3	-15
Cc1c(C(=O)NC2CCOC2)oc2c(F)cccc12 (configuration not stated)	6	-79	-1	5136	3.5	7	8
CC(=O)Nc1ccn(Cc2c(F)cccc2Cl)n1	5	-18	7	11368	4.9	-2	-6
COCCNC(=O)C(C(=O)c1ccc(F)cc1)n1cc(C)ccc1=O (configuration not stated)	-17	-1	-12	3874	1.1	-5	9
CCOc1ccc(-n2c(SCC(=O)Nc3ccc(C(=O)O)cc3)nc3ccccc3c2=O)cc1	1	-24	12	3641	3.9	-6	-14
CCn1c(SCc2cccc(F)c2)nc2c(c1=O)SCC2	-5	7	2	3210	14	11	8
CCCC(=O)Oc1ccc(C2NC(=O)c3ccccc3O2)cc1OC (configuration not stated)	-5	-18	3	4902	2.6	-1	-5
CCSC1=NCCN1C(=O)c1ccc(S(=O)(=O)N(CC)CC)cc1	-5	-3	11	2459	5.0	9	-1
O=C(CSc1ccccc1)N1CCc2ccccc21	1	-37	12	2916	7.8	.	.
CCOc1ccc(NC(=O)CC2NCCNC2=O)cc1 (configuration not stated)	-1	-20	10	4566	0.7	5	2
Cc1cc(/C=N/NC(=O)Cn2c3ccccc3c(=O)c3ccccc32)c(C)n1-c1ccccc1	-3	-18	.	2871	.	.	.
O=C(NCCc1cscn1)C1CCC(=O)N(Cc2ccc(Cl)cc2)C1 (configuration not stated)	7	0	1	6341	5.9	8	11
O=C(NN=C1CCCC1)c1ccc([N+](=O)[O-])cc1	3	-26	11	4219	3.1	6	5
CN(C)S(=O)(=O)c1ccc2oc(SCC(N)=O)nc2c1	7	-1	-3	2428	1.4	-6	8
Cc1ccc2[nH]c3c(=O)n(Cc4ccco4)cnc3c2c1	-7	-12	2	4479	1.3	-4	9
COc1ccc([C@H]2/C=C\CN(C(=O)C3CCCC3)[C@@H](C)C(=O)N2Cc2ccc(F)cc2)cc1	16	-21	.	4456	.	.	.
Nc1cc([N+](=O)[O-])ccc1O	-11	-3	3	2701	11	16	4
CC(NC(=O)CN1CCc2ccccc21)c1ccccc1 (configuration not stated)	3	-25	1	8834	5.2	11	4
O=C(Nc1cccc(F)c1)Nc1ccc(Cl)cn1	6	-14	-15	4039	-2.5	-13	5
O=S(=O)(Nc1ccc(Cl)cc1)c1cccc2cccnc12	2	1	-13	3750	-5.3	6	-3
O=C(CSc1nn(-c2ccc(F)cc2)c(=S)s1)NCC1CCCO1 (configuration not stated)	3	-7	5	4433	7.5	18	3
Cc1cnc(C(=O)Nc2ccccc2-c2nnn(CC(=O)NC3CCCC3)n2)cn1	11	-10	1	3342	0.2	3	-3
C=CCOc1ccc(C(=O)Nc2ccc3c(c2)n(C)c(=O)n3C)cc1	14	-4	15	3492	2.6	4	11
CCC(C)N1C(=O)c2ccccc2C1C(=O)NC1CCCCCC1 (configuration not stated)	-14	-25	2	10931	-2.7	-10	-11
CC(=O)Nc1nnc(S(N)(=O)=O)s1	4	-13	-6	6245	1.8	-7	3
O=C(CN1CCCN(Cc2ccc(F)cc2Cl)C1=O)NC1CCCCCCC1	3	-16	1	7425	0.7	2	14
CCCOc1cccc(C2/C(=C(/O)c3ccccc3)C(=O)C(=O)N2CCN(C)C)c1 (configuration not stated)	-5	-15	-4	2770	4.3	3	6
CC1C(c2ccccc2)N(C)C(c2ccccc2)C(C)C1(O)C#Cc1ccccc1 (configuration not stated)	.	-16	25	7183	-8.0	5	6
CC1CC(=O)Nc2ccccc2N1S(=O)(=O)c1cccc(Cl)c1 (configuration not stated)	-13	-11	5	2452	6.0	-6	1

Following part:
SMILES	BJeLR viability	PrP 5UTR inh	Sa ugtP lethal	Autofluor counter	Sa RN4220 lethal	Mtb hypoxia rep	Mtb hypoxia rep growth
C=CCSc1nnc(-c2c[nH]c3ccccc23)n1CCOC	0	-4	0	22750*	4.9	8	7
CCN(CC)C(=O)c1[nH]cnc1C(=O)Nc1ccc(C)cc1	.	-24	3	3622	7.0	22	9
c1ccc(CNc2cncnc2)cc1	-3	-33	8	3059	4.6	1	3
O=C(COc1ccc(Cl)cc1)NCc1nnc(SCC(=O)Nc2ccccc2F)o1	0	-28	-3	2645	5.7	0	1
O=C(Nc1ccc(Cl)cc1)[C@@H]1[C@@H]2C(=O)N(c3ccc4ccccc4c3)C(=O)[C@@H]2[C@H]2C=CC=NN21	-1	1	-8	9307	-1.2	-4	0
CCC(=O)Nc1ccc2c(c1)ncn2CCc1ccccc1	4	-28	9	3123	0.1	6	-4
